# VDR inh: Inhibitors of the vitamin D receptor (VDR): qHTS; 0.93% of 400,000 active; Potency, µM, without a hit: max response, negative = inhibition, most hits filed as inhibitors; VDR-SRC2-3 peptide fluorescence polarization, 2 h; AID 504847, 2011; active means well fitted inhibition curve with a large enough effect; inconclusive means small, poorly fitted or top-dose-only effect, or another doubt; inactive means no such curve, though single readings can be large or run the other way; further: series mostly up to about 120 µM
# Target sequence (P11473 whole entry, looked up): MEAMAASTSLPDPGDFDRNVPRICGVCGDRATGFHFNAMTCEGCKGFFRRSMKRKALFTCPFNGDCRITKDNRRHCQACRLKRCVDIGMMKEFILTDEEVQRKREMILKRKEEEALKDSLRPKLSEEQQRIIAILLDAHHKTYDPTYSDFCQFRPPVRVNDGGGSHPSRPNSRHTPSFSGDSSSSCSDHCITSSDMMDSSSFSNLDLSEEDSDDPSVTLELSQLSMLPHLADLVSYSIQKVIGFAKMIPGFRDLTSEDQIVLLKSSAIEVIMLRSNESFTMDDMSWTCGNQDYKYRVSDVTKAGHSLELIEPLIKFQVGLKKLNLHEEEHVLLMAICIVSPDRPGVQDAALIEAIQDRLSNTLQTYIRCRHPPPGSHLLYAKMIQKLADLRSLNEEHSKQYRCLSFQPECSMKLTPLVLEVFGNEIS
#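 Compounds are added to VDR with labelled SRC2-3 coactivator peptide and held 2 h at room temperature. Inhibition of the VDR–peptide interaction is then read as a change in fluorescence polarization.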
# Active calls of the source: *; ? = inconclusive; & = joins results of further samples. On the % scale 0 is the no-effect control and ±100 the full control effect; potency means the concentration at half of the fitted maximal effect. This is a subset, so the mix of outcomes need not match the whole.
compound	VDR inh
CCOc1cc(/C=C(\CC(=O)O)c2nc3ccccc3s2)ccc1OCC(=O)Nc1cccc(C(F)(F)F)c1	-5%
Cc1nc(-c2cn[nH]c2-c2ccc(O)cc2O)cs1	-7%
Cc1csc(NC(=O)c2sc3nc(-c4cccs4)ccc3c2N)n1	-13%
CCCNc1sc(S(=O)(=O)CCC)nc1S(=O)(=O)c1ccc(C)cc1	8%
CCc1ccc(NC(=O)CCn2nc(C)c(S(=O)(=O)N3CCCCC3)c2C)cc1	-11%&4%
Cc1ccc(CNC(=O)CCCCCn2c(=O)c3sccc3n(CC(=O)N3CCCCC3C)c2=O)cc1 (stereo unspecified)	10%
COc1ccccc1C1C=C(c2ccc(F)cc2)Nc2nc(-c3ccc(Cl)cc3)nn21 (stereo unspecified)	0%
COC(=O)NC(NC(=S)Nc1ccc([N+](=O)[O-])cc1)C(Cl)(Cl)Cl (stereo unspecified)	-4%
COCCNC(=O)C(OC(=O)CC1Sc2ccccc2NC1=O)c1ccncc1 (stereo unspecified)	1%
CC(Nc1ccc(F)cc1F)C(=O)NC(=O)NC1CCCCC1 (stereo unspecified)	17%
Cc1ccc(S(=O)(=O)N(CC(=O)NCCSc2ccccn2)c2cc(C)cc(C)c2)cc1	0%
CCn1cc(C(=O)NCCCOC)c2cc(OC)c(OC)cc2c1=O	8%
COc1cccc(CNCC(=O)NC(=O)NC2CCCC2)c1	5%
CCOc1ccc(S(=O)(=O)N2c3ccccc3CC2C)cc1 (stereo unspecified)	-2%
O=C(NCCS(=O)(=O)c1ccc(Br)cc1)c1ccccc1	16%
COCC(C)n1c(C)cc(C(=O)COC(=O)c2nc3nc(C)cc(C)n3n2)c1C (stereo unspecified)	-7%
NC(=O)c1nn(-c2ccc(Oc3ccccc3)cc2)c(=O)cc1O	10%
CCOc1ccccc1NC(=O)Cn1c(=O)n(-c2ccc(Cl)cc2)c(=O)c2oc3ccccc3c21	-5%
CC(=O)N(CCO)Cc1cc2cc(C)cc(C)c2[nH]c1=O	5%
COc1cc(NS(=O)(=O)c2ccc(NC(=O)c3cccs3)cc2)nc(OC)n1	-6%
COc1ccc(Cn2ccn(Cc3cccc(OC)c3)c(=O)c2=O)cc1	7%
CCc1nccn1S(=O)(=O)c1cc(OC)c(Cl)cc1OC	18%
Nc1nc(Cl)nc2c1ncn2[C@H]1C[C@H](O)[C@@H](CO)O1	9%&5%
Cc1ccc(C(=O)COc2ccccc2-c2ccccc2)cc1C	-12%
C#CCNC(=O)C1=C[C@H](C2CC2)C[C@H](OCCCCO)O1	8%
N#CCCn1nc(-c2ccccc2)c2ccccc2c1=O	-7%
CC(C)(C)c1ccc(-n2ncc3c2CCCC3NC(=O)c2cnccn2)cc1 (stereo unspecified)	4%
COc1ccc2oc(/C=C/N(C)C)c(C(=O)c3ccc(Cl)cc3)c2c1	18%
COc1cc(OC)cc(C(=O)NC(=S)Nc2ccc3c4c(cccc24)CC3)c1	16%
N#Cc1ccc(CSc2nnc(Cc3cccs3)n2Cc2ccco2)cc1	?
CCc1ccc(NC(=O)C2CCCN(S(=O)(=O)c3c(C)[nH]c(=O)[nH]c3=O)C2)cc1 (stereo unspecified)	7%&-13%
CN(C)/C=C1\C(=O)ON=C1c1ccccc1	-18%
CCCN1CCCc2ccccc21	17%
COc1ccccc1-c1nnc2sc(-c3ccc(N(C)C)cc3)nn12	-13%
Cc1ccc(-c2nnc(-c3cccc4ccccc34)o2)cc1	6%
CC(C)C(NC(=O)c1ccccc1F)C(=O)Nc1nccs1 (stereo unspecified)	-10%
COc1ccc2occ(C(C)=O)c2c1	-9%
CCOC(=O)c1sc(C)c2c(=O)n(Cc3ccc(Cl)cc3)c(C)nc12	5%
O=C(CSc1nnnn1-c1ccc(F)cc1)Nc1ccccc1F	-15%
CN(C)C(=O)c1ccc(NC(=O)COC(=O)CCN=C2NS(=O)(=O)c3ccccc32)cc1	-10%
O=C(COc1ccccc1F)Nc1ccc2[nH]c(=O)[nH]c2c1	0%
Cc1ccc(NC(=O)CSc2nn(-c3ccccc3)c(=S)s2)cc1S(=O)(=O)N(C)C	0%
C/C=C/c1ccc(OCCCCN2C(=O)NC(C)(C)C2=O)c(OC)c1	-20%
Cc1ccc(CN2CCN(C(=O)C3CCC3)CC2)cc1	-10%
COc1ccc2c(c1)CCc1cnoc1-2	-14%
CC(=O)c1cc2c(cc1NS(=O)(=O)c1ccc(F)cc1)OCO2	-19%
O=C1CC(SCc2nc3ccccc3[nH]2)C(=O)N1c1ccc(Cl)cc1 (stereo unspecified)	-8%
COc1ccc(C2=NOC(C(=O)Nc3cc(C)nn3-c3ccccc3)C2)cc1OC (stereo unspecified)	-14%
COc1ccc(C(C)NC(=O)c2ccncc2)cc1OC (stereo unspecified)	0%
COc1ccc(Cc2nnc(SCC(=O)NC3(C#N)CCCCC3)n2N)cc1	-18%

# Shown with the structure last: five of the compounds above
VDR inh,Compound
0%,COc1ccc(C(C)NC(=O)c2ccncc2)cc1OC (stereo unspecified)
16%,COc1cc(OC)cc(C(=O)NC(=S)Nc2ccc3c4c(cccc24)CC3)c1
-13%,COc1ccccc1-c1nnc2sc(-c3ccc(N(C)C)cc3)nn12
-10%,CC(C)C(NC(=O)c1ccccc1F)C(=O)Nc1nccs1 (stereo unspecified)
-14%,COc1ccc2c(c1)CCc1cnoc1-2

# Next compounds follow:
compound	VDR inh
S=c1[nH]nc(-c2ccccc2)n1/N=C/c1ccc(-c2ccccc2Cl)o1	-1%
O=C(O)CCNc1ccc2c(c1)OCCO2	14%
O=C(C[n+]1ccccc1)N/N=C/c1cccs1	12%
Cc1cc(NC(=O)COc2cccc(Oc3ccccc3)c2)no1	-3%
CC(NC(=O)CCCC1CCCCC1)c1ccc(S(N)(=O)=O)cc1 (stereo unspecified)	-11%
O=C(NCc1ccccc1)NC(=O)c1ccccc1F	17%
CC(NC(=O)NC1CCCCC1)c1ccccc1 (stereo unspecified)	-4%
CCOC(=O)N1CCC(N2C(=O)c3ccccc3C2Nc2cc(C)cc(C)c2)CC1 (stereo unspecified)	-9%
CN1C(=O)/C(=C/c2ccc(OCc3ccc(C(=O)O)cc3)c(Cl)c2)NC1=S	-23%
COc1ccc(Br)c(C(=O)Nc2cccc(Cl)c2Cl)c1	0%
CC(=O)c1nc(-c2ccccc2)sc1C	-10%
COc1ccccc1CN(C)CC(=O)NC1CCCc2ccccc21 (stereo unspecified)	-17%
Cc1ccc(C)c(NC(=O)COC(=O)CNC(=O)C2CCCCC2)c1	-1%
Cc1cc(Br)ccc1NC(=O)CNC(=O)CN1C(=O)NC2(CCCCCC2)C1=O	1%
CCCCCCCCCCCC[n+]1ccc2ccccc2c1	?
CCOC(=O)N1CCN(c2c(NCc3ccccc3OC)c(=O)c2=O)CC1	-1%
COc1cc(OC)c(N(C)C(=O)Cn2ncc3c([nH]c4ccccc43)c2=O)cc1Cl	-1%
O=C(C1CCN(S(=O)(=O)c2cccc3nonc23)CC1)N1CCCCC1	3%
N=c1c(C(=O)NCc2ccc(F)cc2)cc2c(=O)n3ccccc3nc2n1CC1CCCO1 (stereo unspecified)	4%
CNC(C)C#Cc1ccc2c(=O)c3cc(C)c(C)cc3oc2c1 (stereo unspecified)	-9%
COc1ccc2[nH]c(CN3CCN(CC(C)C)C(CCO)C3)c(C)c2c1 (stereo unspecified)	10%
C/C(=N\NC(=S)Nc1ccc(C)c(C)c1)c1ccc(N2CCOCC2)cc1	-4%
C/C(=N/NC(=O)CCc1c(C)n[nH]c1C)c1cccc([N+](=O)[O-])c1	-8%
CC(C)CC(=O)/C=C/n1c(=S)oc2ccccc21	?
CN(C)CCOC1c2ccccc2-c2ccccc21	?

COc1ccc(C(C)=O)cc1CN1C(=O)NC2(CCCC2)C1=O
  VDR inh: 1%
O=C(O)CNC(=O)/C=C/c1ccc(Cl)cc1Cl
  VDR inh: ?
CC(C)c1ccc(C2c3c(-c4ccccc4O)n[nH]c3C(=O)N2CCc2ccccc2)cc1 (stereo unspecified)
  VDR inh: -8%
O=C(c1ccco1)N1CCN(C(=S)Nc2ccccc2Cl)CC1
  VDR inh: -3%
O=C(NCCc1ccc(Cl)cc1)C1CCN(S(=O)(=O)c2ccc(-n3cnnn3)cc2)CC1
  VDR inh: -3%
O=C(N/N=C/C1CC2C=CC1C2)c1ccccc1O (stereo unspecified)
  VDR inh: -7%
COc1ccc(C2=NOC(C(=O)Nc3cccnc3)C2)cc1OC (stereo unspecified)
  VDR inh: -6%
O=C(CN1C(=O)c2ccccc2S1(=O)=O)NC(Nc1ccccc1F)C(Cl)(Cl)Cl (stereo unspecified)
  VDR inh: 14%
O=C(O)CC12CC3CC(C1)CC(n1ncc(NCc4ccccc4Cl)c(Cl)c1=O)(C3)C2
  VDR inh: -10%
Cc1ccc(S(=O)(=O)NC(=O)c2cccc(N(C)C)c2)cc1
  VDR inh: -4%
Cc1cccc(NC(=O)CSc2ncnc3sc(C)cc23)c1
  VDR inh: 15%
O=C1OCCN1C(=O)[C@H]1[C@H](c2ccc(Cl)cc2)C(c2ccc(F)cc2)=NN1c1ccccc1
  VDR inh: 15%&2%
CCCn1c(N)c(C(=O)COC(=O)c2c(C)noc2C)c(=O)n(C)c1=O
  VDR inh: -7%
C[C@H](CO)N1C[C@H](C)[C@@H](CN(C)C(=O)Nc2ccccc2)Oc2c(NS(=O)(=O)c3cn(C)cn3)cccc2C1=O
  VDR inh: -23%
CC(C)c1ccc(NC(=O)C(c2ccccc2)N2CCN(C(=O)c3ccco3)CC2)cc1 (stereo unspecified)
  VDR inh: -11%

# Another view of some results above.
VDR inh | SMILES
15% | Cc1cccc(NC(=O)CSc2ncnc3sc(C)cc23)c1
15%&2% | O=C1OCCN1C(=O)[C@H]1[C@H](c2ccc(Cl)cc2)C(c2ccc(F)cc2)=NN1c1ccccc1

# (continued)
CCOc1ccc(NC(=O)N(CCN(C)C)C(C)c2cccnc2)cc1 (stereo unspecified)
  VDR inh: -1%
CCOC(=O)C1=C(C)N=c2s/c(=C\c3ccc(OC(C)=O)c(OCC)c3)c(=O)n2C1/C=C/c1ccccc1 (stereo unspecified)
  VDR inh: -25%
c1ccc(Oc2cc(-n3cccn3)ncn2)cc1
  VDR inh: 1%
COC(=O)C1=C(C)OC(N)=C(C#N)C1c1ccccc1 (stereo unspecified)
  VDR inh: 1%
CC(Sc1nc(N)cc(=O)[nH]1)C(=O)N1CCOCC1 (stereo unspecified)
  VDR inh: 5%
COc1ccc(C(=O)OCC(=O)c2c(N)n(C)c(=O)n(C)c2=O)cc1OC
  VDR inh: -7%
CCC(=O)Nc1ccc(C(=O)N/N=C/c2cc(Br)c(OC)cc2OC)cc1
  VDR inh: -11%
COc1cc(OC)cc(-c2cc3cc(F)ccc3cn2)c1
  VDR inh: 11%
COc1ccc(N(CC(=O)N2CCc3ccccc3C2)S(=O)(=O)c2ccc(C)cc2)cc1Cl
  VDR inh: 0%
CCn1c(SCC(=O)N2CCc3ccccc3C2)nc2sc(C)c(C)c2c1=O
  VDR inh: -5%
O=C(CN1CCc2ccccc2C1)NCc1ccco1
  VDR inh: -3%
O=C1c2ccccc2CCCC12N=NCC2c1cccc2ccccc12 (stereo unspecified)
  VDR inh: 1%
CCOc1ccc(C(c2c(O)cc(C)n(Cc3ccco3)c2=O)N2CCN(c3ccccc3)CC2)cc1 (stereo unspecified)
  VDR inh: ?
COc1ccc(CCNC(=O)CSC(=O)c2ccccc2)cc1OC
  VDR inh: ?
CC(=O)c1c(C)[nH]c(C(=O)NCc2cccc(Cl)c2)c1C
  VDR inh: -6%

# As entered above:
# For VDR inh, O=C(CN1CCc2ccccc2C1)NCc1ccco1 has -3%
# For VDR inh, CC(Sc1nc(N)cc(=O)[nH]1)C(=O)N1CCOCC1 (stereo unspecified) has 5%
# For VDR inh, COc1cc(OC)cc(-c2cc3cc(F)ccc3cn2)c1 has 11%
# For VDR inh, O=C1c2ccccc2CCCC12N=NCC2c1cccc2ccccc12 (stereo unspecified) has 1%
# For VDR inh, CCn1c(SCC(=O)N2CCc3ccccc3C2)nc2sc(C)c(C)c2c1=O has -5%

# (continued)
COc1cccc(-c2csc(N3CCN(C(=O)C4CCCCC4)CC3)n2)c1
  VDR inh: -6%
O=C(c1ccc2c(=O)n(CCc3ccccc3)c(=O)[nH]c2c1)N1CCN(C(=O)c2ccco2)CC1
  VDR inh: -9%
O=C(COC(=O)c1ccccn1)NCCCc1ccccc1
  VDR inh: 6%
CCN(c1cccc(C)c1)S(=O)(=O)c1c(C)[nH]c(C)c1C(=O)N1CCCCC1
  VDR inh: 0%
Cc1ccc(C(=O)N2CCN(c3nc4ccccc4n3C)CC2)cc1
  VDR inh: 19%
CCc1ccc(/C=C\C(=O)N2CCc3ccccc3C2)cc1
  VDR inh: 2%
Cc1ccc(S(=O)(=O)N2CCCCC2)cc1NC(=O)CNCc1ccco1
  VDR inh: -13%
CC(C)NC(=O)CN1C(=O)CSc2ccc(S(=O)(=O)N3CCCC3)cc21
  VDR inh: -15%
Cc1ccc(/C(O)=C2/C(=O)C(=O)N(CC(=O)O)C2c2ccc([N+](=O)[O-])cc2)cc1 (stereo unspecified)
  VDR inh: ?
COc1ccc(-c2nc3c(c(SCC(=O)Nc4cc(C)cc(C)c4)n2)Cc2c(CO)cnc(C)c2O3)cc1
  VDR inh: -2%
CCOc1ccc(C(=O)CCC(=O)N(CC)CC(=O)NCc2cccs2)cc1
  VDR inh: -6%
COc1ccc(C(=O)COC(=O)c2cc(=O)c3ccccc3o2)cc1
  VDR inh: -8%
CC(C(=O)Nc1nc(-c2ccc(F)c(F)c2)cs1)N1C(=O)C2CC=CCC2C1=O (stereo unspecified)
  VDR inh: 2%
O=C(CCn1c(=O)[nH]c2ccsc2c1=O)N1CCN(c2cccc(Cl)c2)CC1
  VDR inh: 23%
O=C(Nc1ncc(Br)s1)C1CCCN1S(=O)(=O)c1cccc2cccnc12 (stereo unspecified)
  VDR inh: -21%
Cc1cc(C)cc(-c2nnc(SCC(=O)Nc3cc(C)on3)o2)c1
  VDR inh: -3%
CNC(=O)c1ccc(-c2ccc(OC)cc2)s1
  VDR inh: -2%
CN(C)CCCN(C(=O)c1ccc(S(=O)(=O)N2CCCCCC2)cc1)c1nc2ccc(F)cc2s1
  VDR inh: 5%
